Screens as filed in PubChem.
Bst PK mod = Pyruvate Kinase. partly purified Bacillus stearothermophilus pyruvate kinase, luminescence ATP production; ribose 5-phosphate activator present at AC10. Potency, µM. actives 1.2% (n = 51,000). AID 361, 2006; in the data active means potency below about 11 µM; inconclusive means mostly about 12 µM to 25 µM; inactive means weaker than that;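 the screen sought inhibitors and activators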;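 also: potency is read from the fitted curve at half-maximal effect; scaled between full activation by ribose 5 phosphate and full inhibition by luteolin; about four in five hits inhibit and the cells do not say which; series up to 57 µM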
YjeE inh = qHTS Assay for Inhibitors of YjeE; AID 605, 2007; tRNA threonylcarbamoyladenosine biosynthesis protein TsaE (Escherichia coli (strain …; actives 0.05% (n = 71,000); purified YjeE, fluorescence polarisation of a bound ADP probe; Potency, µM; active = well fitted falling curve; inconclusive = weaker or top-dose-only fall, or a rising curve; inactive = flat or poorly fitted curve;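 also: top concentration of the series not given in the record; excess ADP was the control for the full effect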
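Purified YjeE (10 uM) with BODIPY Texas Red-labeled ADP probe (2 uM); compounds pin-transferred, 15 min at room temperature. Binding inhibition read as decreased fluorescence polarization; ADP titration as control.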
The depositor's hits bear a star; i = inactive; u = inconclusive; x = no result given. The list is partial, so the mix of outcomes need not match the whole.

item	SMILES	Bst PK mod	YjeE inh
1	COc1ccc(NC(=O)C2CCN(c3cc(C)nc(-c4ccccc4)n3)CC2)cc1	>57	i
2	CCCOc1ccc(C(CC(=O)O)NS(=O)(=O)c2ccc(NC(C)=O)cc2)cc1 (configuration not stated)	>57	i
3	CCCCC(O)(C(NC=O)C(=O)OC)C(F)(F)F (configuration not stated)	>57	i
4	CN(CCc1ccccn1)Cc1ccc(Cl)cc1Cl	x	i
5	CCCCC(CC)COP(=O)(OCC(CC)CCCC)OCC(CC)CCCC (configuration not stated)	x	i
6	CN(C)C=Nc1ncc2c([nH]c3ccccc32)c1C#N	u	i
7	OC1(Cc2ccn[nH]2)CCCCC1	>57	i
8	O=C(NCc1ccc(F)cc1)c1ccc(CS(=O)(=O)Cc2ccc(F)cc2)o1	>57	i
9	COc1ccc(NS(=O)(=O)c2cccc(-c3nnc4n3CCCCC4)c2)cc1	>57	i
10	CCOc1cc(N2CCOCC2)c(OCC)cc1NC(=O)CCC1CCCC1	>57	i
11	CN1CCN(C(=O)c2ccc3c(=O)n(CCc4ccccc4)c(=S)[nH]c3c2)CC1	>57	i
12	CCOc1ccccc1N(CC(=O)Nc1ccccc1C(=O)OC)S(C)(=O)=O	x	i
13	COc1ccc(S(=O)(=O)N(C)CC(=O)Nc2ccccc2C(F)(F)F)cc1	>57	i
14	CC(=O)N=C(N)Sc1nc2ccccc2[nH]1	u	x
15	CCc1nn(-c2cc(Cl)ccc2OC)c2c1C(=O)CCC2	>57	i
16	CCOC(=O)N1CCC(NC(=O)CCC(=O)c2ccccc2)CC1	>57	i
17	Cn1c(CN2CCCCC2)nc2cc(NC(=O)c3ccc(F)cc3)ccc21	>57	i
18	O=C(c1ccco1)N1CCN(C(=O)C2CCN(S(=O)(=O)c3cccs3)CC2)CC1	>57	i
19	CCOC(=O)c1nn(-c2ccc(OC)cc2)c(=O)c2c(N)scc12	>57	i
20	Cc1ccc(S(=O)(=O)N(C)Cc2nc(-c3ccncc3)no2)cc1	>57	i
21	CCOC(=O)c1ccc(NC(=O)CSc2nc(C)cc(=O)[nH]2)cc1	x	i
22	CCOc1ccc(N2CC(C(=O)Nc3ccccc3F)CC2=O)cc1 (configuration not stated)	>57	i
23	CCOC(=O)N1CCN(CCC(=O)c2ccc(Cl)cc2)CC1	>57	i
24	O=c1oc2ccccc2n1CCc1ccccc1	>57	i
25	CC1CN=C(N(C(=O)Nc2ccccc2)c2ccc(S(=O)(=O)N3CCOCC3)cc2)S1 (configuration not stated)	>57	i
26	Cc1ccc(S(=O)(=O)N2CCOCC2)c(C)c1-n1cnnn1	>57	i
27	CCOC(=O)c1ccc2c(c1)NC(=O)C(N1CCN(c3ccc(OC)cc3)CC1)S2 (configuration not stated)	x	i
28	CCc1ccc(N2CC34C=CC(O3)C(C(=O)OC(C)C)C4C2=O)cc1 (configuration not stated)	x	i
29	OCCNc1nc(N2CCN(Cc3ccccc3)CC2)nc2ccccc12	x	i
30	CCCc1nc(Nc2nc3ccccc3o2)nc(C)c1C(=O)OCC	x	i
31	CC1Oc2ccccc2N(CC(=O)Nc2ccc3c(c2)OCO3)C1=O (configuration not stated)	>57	i
32	COc1ccccc1NC(=O)CC1Nc2ccccc2NC1=O (configuration not stated)	>57	i
33	CCOC(=O)CSCc1c(C#N)c2ccccc2n1C	>57	i
34	CCn1c(COc2cccc(OC)c2)nnc1SCC(=O)Nc1cc(OC)ccc1OC	>57	i
35	Cc1cccc(C(C)(C)C)c1OCCn1ccnc1	>57	i
36	Cc1ccc(C2C(C(=O)c3sc(C)nc3C)=C(O)C(=O)N2CCN2CCOCC2)o1 (configuration not stated)	>57	i
37	CCN(CC)S(=O)(=O)c1ccc2c(c1)nc(SCC(=O)NC1CC1)n2-c1ccccc1OC	>57	i
38	COc1nc(-c2ccc(C)cc2)ccc1-c1noc(-c2ccco2)n1	x	i
39	CCOC(=O)c1[nH]nc(C(=O)c2ccc(Br)cc2)c1O	>57	i
40	CC(CCN)(CCN)[N+](=O)[O-]	x	i

Of the compounds above, these contain a CF3 group.
item	SMILES	Bst PK mod	YjeE inh
3	CCCCC(O)(C(NC=O)C(=O)OC)C(F)(F)F (configuration not stated)	>57	i
13	COc1ccc(S(=O)(=O)N(C)CC(=O)Nc2ccccc2C(F)(F)F)cc1	>57	i

Continued.
item	SMILES	Bst PK mod	YjeE inh
41	CCSC1=C(C#N)C(c2ccc(Cl)cc2)C2=C(CCCC2=O)N1 (configuration not stated)	>57	i
42	Cc1ccc(S(=O)(=O)N2CCC(C(=O)N3CCC(C(=O)NCc4cccnc4)CC3)CC2)cc1	>57	i
43	COc1cccc(NC(=O)C2CCCN2C(=O)OCc2ccccc2)c1 (configuration not stated)	>57	i
44	COc1ccc(C)cc1NC(=O)C1CCCN(S(=O)(=O)c2cnc[nH]2)C1 (configuration not stated)	x	i
45	CCc1ccc(-c2nc(CN3CCC(C(=O)NCCN(CC)c4ccccc4)CC3)c(C)o2)cc1	>57	i
46	CC(C)n1c(SCC(=O)c2ccc3c(c2)OCCO3)nc2c1c(=O)n(C)c(=O)n2C	>57	i
47	O=C(O)c1cc(S(=O)(=O)NCc2ccco2)c(Cl)cc1Cl	x	i
48	O=S(=O)(c1cccc2nsnc12)N1CCN(C/C=C/c2ccccc2)CC1	>25.6	x
49	COc1ccccc1NC(=O)c1ccc(S(=O)(=O)N2CCOCC2)cc1	>57	i
50	CN1CCN(c2ccccc2NC(=O)c2ccc(OCc3ccccc3)cc2)CC1	x	i
51	COc1cc(OC)cc(-c2nnc(SCC(=O)Nc3cc(C)on3)o2)c1	>57	i
52	O=C(c1cccnc1NCc1ccc(F)cc1)N1CCOCC1	>57	i
53	CC(=O)c1ccc(-n2nnnc2SCC(=O)N2CCc3ccccc3C2)cc1	>11.4	i
54	COCCSc1ccccc1C(=O)NCc1ccco1	>57	i
55	CCNC(=O)[C@@H]1O[C@@H](n2cnc3c(NCc4ccccc4)ncnc32)[C@@H](O)[C@H]1O	x	i
56	CCOc1ccc(N(CC(=O)Nc2ccccc2)S(C)(=O)=O)cc1	x	i
57	CCOC(=O)c1ccc(NC(=O)CCc2nc(-c3cccc(C)c3)no2)cc1	>57	i
58	COc1ccc(-c2cn3c(C)c(C(=O)Nc4cccc(NC(C)=O)c4)sc3n2)cc1	>11.4	i
59	O=C(c1ccc(COc2ccc(F)cc2)o1)n1cccn1	x	i
60	CCCCSc1nc(O)c(C2OC(=O)c3c2ccc(OC)c3OC)c(=O)n1C (configuration not stated)	>25.6	x
61	N#Cc1ccsc1NC(=O)COc1ccc(-c2nnco2)cc1	>57	i
62	Cc1c(C#N)sc2nc(-c3ccccc3)nc(N3CCCC3)c12	x	i
63	CN1CCN(c2ncnc3ccc(-c4ccccc4C(F)(F)F)cc23)CC1	x	i
64	COc1ccc(N(C(=O)c2cccc(OC)c2OC)C2C=CS(=O)(=O)C2)cc1 (configuration not stated)	>57	i
65	CCC(C)(C)C	x	i
66	O=C(CSc1nnc(COc2ccc3c(c2)CCCC3)o1)Nc1ccc(F)cc1	x	i
67	CCCS(=O)(=O)NCc1cn2cccc(C)c2n1	>57	i
68	Cc1ccc(-c2cc(C(F)F)nc(N3CCC(C)CC3)n2)cc1	>57	i
69	O=C(O)c1cc(=O)[nH]c(=S)[nH]1	x	i
70	COc1ccc(-c2nc3cnc(N(C)C)nc3n(-c3ccccc3)c2=O)cc1	x	i
71	CC(=O)N1CCc2c(sc(NC(=O)CN3C(=O)CCC3=O)c2C(N)=O)C1	x	i
72	CCOC(=O)c1ccc2c(c1)nc(SC/C(O)=C(\C#N)c1nc3ccccc3[nH]1)n2CC	>57	i
73	Cc1onc(-c2ccccc2)c1C(=O)Nc1cccnc1	>57	i
74	Cc1ccc(N2CC(C(=O)Nc3nccs3)CC2=O)cc1 (configuration not stated)	>57	i
75	Cc1cc(C)nc(-n2nc(C)cc2NC(=O)CN2CCc3ccccc3C2)n1	>57	i
76	CCOC(=O)c1cccc(NC(=O)CN(C)S(=O)(=O)c2cnc[nH]2)c1	>57	i
77	CCN(CC)S(=O)(=O)c1cccc(C(=O)Nc2ccccc2)c1	>57	i
78	COc1ccc(C(=O)C2CCCCC2=O)cc1 (configuration not stated)	>25.6	x
79	Cc1ccc(-c2ccc(=O)n(CC(=O)NCCN3CCCCC3C)n2)cc1 (configuration not stated)	>57	i
80	NC(=O)/N=C(\N)NC(=O)c1ccccc1	x	i
81	Cc1ccc(C)c2[nH]c(=O)c(CN(Cc3ccco3)S(=O)(=O)c3ccc4c(c3)OCCO4)cc12	>57	i
82	CC1=CCC2C(=O)N(c3ccc4ccccc4n3)C(=O)C2C1 (configuration not stated)	>57	i
83	Cc1cc(C)c(N2CCN(S(=O)(=O)N3CCCCCC3)CC2)c(C)c1	>57	i
84	O=C(Cc1cccs1)NCC1CCCO1 (configuration not stated)	>57	i
85	CN(C)c1ncc2nc(-c3cccs3)c(=O)n(C)c2n1	x	i
86	Cn1c(=O)[nH]c(=O)c2c1nc(Sc1ncccn1)n2CCCc1ccccc1	>57	i
87	CCN(CCCn1c(SCC#N)nc2ccccc2c1=O)c1ccccc1	>57	i
88	C[C@@](N)(Cc1ccc(O)c(O)c1)C(=O)O	x	i
89	CCCCCn1c(CNC(C)=O)nc2ccccc21	>57	i
90	O=C(C1CCC1)N1CCc2cc(S(=O)(=O)NC3CCCC3)ccc21	>57	i
91	CC1CCCC(C)N1C(=O)c1cc(-c2cccs2)on1 (configuration not stated)	>57	i
92	COc1cc(C2C(C(=O)OC(C)C)=C(C)Nc3[nH]c(=O)[nH]c(=O)c32)ccc1O (configuration not stated)	>57	i
93	Cc1nc(C)c(-c2ccccc2)c(=O)[nH]1	>57	i
94	CN1CCN(c2ccc3nc(-c4ccc5nc(-c6ccc(O)cc6)[nH]c5c4)[nH]c3c2)CC1	x	i
95	COc1ccc(NC(=O)C2OCCc3ccccc32)c(OC)c1 (configuration not stated)	>57	i
96	Cc1cnc(C(=O)OCC(=O)Nc2ccc(Cl)cc2Cl)cn1	>57	i
97	O=C(CN1CCOCC1)Nc1ccccc1-c1ccccc1	>57	i
98	COc1ccc(C(=O)N(CN2CCCC2=O)c2cc(C)on2)cc1OC	>57	i
99	O=C(NC1CCCCC1)C(c1ccncc1)N(C(=O)Cn1nnc(-c2cccs2)n1)C1CCCC1 (configuration not stated)	>57	i
100	Cc1ccc(NC(=O)CSc2nnc(-c3cnccn3)n2Cc2ccco2)cc1	>57	i

Later entries.
item	SMILES	Bst PK mod	YjeE inh
101	COc1ccc(-c2nn3cnnc3s2)cc1OC	x	i
102	C=CCOC(=O)C1=C(C)NC(SCC(=O)N(CC)CC)=C(C#N)C1c1ccco1 (configuration not stated)	>25.6	x
103	O=C(NCCCn1ccnc1)c1cn(-c2ccccc2)nc1-c1ccccc1	x	i
104	O=C(COC(=O)Cn1cnc2ccccc21)NCCc1ccccc1	>57	i
105	COC(=O)c1ccc(CSc2nc3c(cnn3-c3ccc(F)cc3)c(=O)[nH]2)o1	>57	i
106	COC(=O)Cc1c(C)nc2nc(Cc3ccccc3)[nH]n2c1=O	>57	i
107	Cc1cccc(-c2nnn(CC/C(N)=N/O)n2)c1	>57	i
108	Cc1cccc(NC(=O)Cn2cnc3ccc(S(=O)(=O)N4CCC(C)CC4)cc3c2=O)n1	>11.4	i
109	CCN1C(=O)c2ccc(C(=O)O)cc2C1=O	>57	i
110	O=C(N1CCOCC1)N(Cc1ccco1)CC1CCCO1 (configuration not stated)	>57	i
111	COC(=O)CCS(=O)(=O)c1ccc(Cl)c(Cl)c1	u	i
112	COc1cccc(N2CC34C=CC(O3)C(C(=O)O)C4C2=O)c1 (configuration not stated)	>57	i
113	C=C[C@@]1(C)CC(=O)[C@@]2(O)[C@@]3(C)[C@H](O)CCC(C)(C)[C@@H]3[C@H](O)[C@H](OC(C)=O)[C@]2(C)O1	x	i
114	O=C1Nc2ccccc2C12OCC1(CO2)COC2(OC1)C(=O)Nc1ccccc12 (configuration not stated)	>57	i
115	Cc1ccc(Nc2nnc(-c3ccc4c(c3)OCO4)o2)c(C)c1	x	i
116	O=C(NCCC1=CCCCC1)c1cnccn1	>57	i
117	COc1ccc(CN2CC(C(=O)NCCCN3CCN(Cc4ccccc4)CC3)CC2=O)cc1 (configuration not stated)	>57	i
118	CSc1nc(N2CCN(CCO)CC2)c2sc3nc(-c4ccco4)c4c(c3c2n1)CCC4	>57	i
119	O=c1c2ccccc2nc(-c2ccccc2)n1CCN1CCOCC1	>57	i
120	CCC(CC)C(=O)Nc1cc(NC(=O)C(CC)CC)cc(C(=O)O)c1	>57	i
121	O=C(CN1CCC(n2nnc3cc(F)ccc32)CC1)Nc1ccccc1N1CCOCC1	>57	i
122	CN(C)c1nc(N)nc(-c2ccco2)n1	x	i
123	C=C(C)CSc1nnc([C@@H](NC(=O)OC(C)(C)C)C(C)CC)o1 (some centres not stated)	>57	i
124	CCCn1nnc(NC(=O)c2ccc(OCC)c(Cl)c2)n1	>57	i
125	O=C(CN1CCC(O)(c2ccc3c(c2)OCO3)CC1)OC1CCCCC1	>57	i
126	CCCNC(=O)N1CCN(c2ncccn2)CC1	>57	i

Arranged by length of the SMILES (rising): three of the compounds above
item	SMILES	Bst PK mod	YjeE inh
122	CN(C)c1nc(N)nc(-c2ccco2)n1	x	i
126	CCCNC(=O)N1CCN(c2ncccn2)CC1	>57	i
125	O=C(CN1CCC(O)(c2ccc3c(c2)OCO3)CC1)OC1CCCCC1	>57	i
